High-throughput results: PubChem, National Center for Advancing Translational Sciences (NCATS)
D2 potentiator = human D2 receptor positive allosteric modulation; P14416; DiscoveRx D2 beta-arrestin cells, luminescence, 90 min; 100% = 57 uM dopamine signal; potentiation, % (test concentration not listed); hit rate 0.23% among 360,000; active = potentiation of 50% or more; inconclusive = 30% to 50%; inactive = 30% or less;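 also: compound concentration not given in the record; tested on top of an EC20 dose of dopamine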
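PathHunter D2 cells, attached overnight at 37 deg C, received compound in DMSO plus dopamine at EC20 (50 nM final) for 90 min at 37 deg C. Beta-arrestin recruitment was read as luminescence after 1 h with detection reagent at ambient temperature.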
PINK1 modulator = changes PINK1 expression. PINK1 immunofluorescence, high-content cytometry, 24 h. Potency, µM (titrated, usually from 76.6 µM), inactives show top-dose activation (PINK1 increase), actives largely listed as activators. hit rate 0.2% among 410,000; active = well fitted activation curve with a large enough effect; inconclusive = small, poorly fitted or top-dose-only effect; inactive = flat fitted curve, though single readings scatter; cell line not stated here;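 also: potency is read from the fitted curve at half-maximal effect; % of control where 0% means no effect; nearly all actives have a fitted effect of over 65% in size; a mitochondrial uncoupler was the plate control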
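Measures PINK1 amount and localization on or inside mitochondria by immunofluorescence. Stable cells get compounds at 5 concentrations for 24 hours before fixation and staining; CCCP controls included.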
TRPML1 agonist = activates the human TRPML1 channel; hit rate 0.12% among 410,000; TRPML1-expressing cells, Ca2+ dye fluorescence, FDSS; host cell line not named in the record; reference of the full effect not given here; activation, % (no concentration beside the values); Q9GZU1; AID 624414; in the data active = activation above about 50%; inconclusive = about 30% to 50%; inactive = below about 30%; also: 0% is about no effect; the text of the record puts the active cut at 80%
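Cells: TRPML1-DL, 1X Tet inducer, ~16 h at 37 degrees C/5% CO2. Dye: ABD Ca8 no-wash + quencher, 45-90 min RT. Read: 10 s baseline, compound add, 110 s agonist phase; 54-4 EC80 (4uM final), 110 s antagonist phase.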
D2 ag = human D2 receptor agonism in beta-arrestin assay. P14416. DiscoveRx PathHunter D2 beta-arrestin, luminescence, 90 min; 100% = 57 uM dopamine signal. activation, % (test concentration not listed). hit rate 0.084% among 360,000. AID 624465; in the data active = activation above about 40%; inconclusive = about 15% to 40%; inactive = below about 15%; also: compound concentration not given in the record; the text of the record calls up to 30% inactive
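Agonist mode: compounds alone added to overnight-plated D2 PathHunter cells for 90 min at 37 C, with 57 uM final dopamine (EC100) defining full response. Beta-arrestin recruitment detected by chemiluminescent reagent, read after 1 h at ambient temperature.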
Six1-Eya2 blk = inhibitors of human Six1/Eya2 interaction; Q15475+O00167; AlphaScreen GST-Six1/His-Eya2 binding, biochemical; active compounds read low; control for the full effect not named in the record; activity change, % (test concentration not listed); hit rate 0.56% among 360,000; in the data active = activity change below about -65%; inconclusive = about -30% to -65%; inactive = above about -30%; also: % is scaled to controls: 0 for no effect and ±100 for the full control effect
Target sequence (O00167 whole entry, looked up): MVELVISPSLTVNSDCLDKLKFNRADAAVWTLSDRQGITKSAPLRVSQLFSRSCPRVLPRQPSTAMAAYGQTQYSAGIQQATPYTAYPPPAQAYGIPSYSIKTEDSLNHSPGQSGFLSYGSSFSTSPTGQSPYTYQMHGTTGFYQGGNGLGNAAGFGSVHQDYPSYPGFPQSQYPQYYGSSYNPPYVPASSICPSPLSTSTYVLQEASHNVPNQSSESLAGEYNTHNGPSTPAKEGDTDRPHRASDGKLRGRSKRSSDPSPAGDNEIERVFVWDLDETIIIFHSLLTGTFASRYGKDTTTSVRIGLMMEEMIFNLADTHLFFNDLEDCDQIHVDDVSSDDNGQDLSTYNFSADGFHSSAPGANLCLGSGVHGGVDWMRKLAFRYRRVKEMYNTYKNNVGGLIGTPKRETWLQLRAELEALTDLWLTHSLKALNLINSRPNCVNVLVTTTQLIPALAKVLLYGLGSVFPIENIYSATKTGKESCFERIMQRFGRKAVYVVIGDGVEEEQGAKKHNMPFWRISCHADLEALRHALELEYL
Target sequence (Q15475 whole entry, looked up): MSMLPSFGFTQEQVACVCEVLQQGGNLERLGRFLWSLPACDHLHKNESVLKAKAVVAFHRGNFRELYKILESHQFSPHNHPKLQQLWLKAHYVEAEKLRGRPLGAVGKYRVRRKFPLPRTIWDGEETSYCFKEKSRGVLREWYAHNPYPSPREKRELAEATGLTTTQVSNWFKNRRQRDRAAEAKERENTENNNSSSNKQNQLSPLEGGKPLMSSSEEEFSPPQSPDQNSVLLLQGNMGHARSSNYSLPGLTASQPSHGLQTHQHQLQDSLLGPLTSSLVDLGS
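Six1/Eya2 binding was read as AlphaScreen signal after compounds were pinned into GST-Six1 plus His-tagged Eya2 (5X stock 250/500 nM) in pH 8.0 Tris/NaCl/TCEP buffer, beads added, then incubated 1 h, 37 C, dark.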
CtBP-E1A inh = CtBP/E1A binding inhibition; AlphaScreen GST-E1A/His-CtBP binding, 1536-well; active compounds read low; control for the full effect not named in the record; activity change, % (test concentration not listed); hit rate 0.49% among 340,000; in the data active means activity change below about -65%; inconclusive means about -30% to -65%; inactive means above about -30%; also: % is scaled to controls: 0 for no effect and ±100 for the full control effect
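Homogeneous bead-based format: GST-tagged E1A captured on glutathione donor beads, His-tagged CtBP on nickel acceptor beads; compounds precede bead addition by 2 h at 37 °C.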
Active calls of the source: *; [ ] = dose if it differs, or a comment.

What do the screens show for `CCOc1ccc(CN(CC)C(=O)c2ccc3c(c2)[nH]c(=O)c(=O)n3CC)cc1OC`?
D2 potentiator: 8.1; PINK1 modulator: -0.2%; TRPML1 agonist: 1.7; D2 ag: 0.2; Six1-Eya2 blk: 1.1; CtBP-E1A inh: -11.9

How did COc1ccc(N=C2S/C(=C\c3cc(C)n(C)c3C)C(=O)N2C)cc1 do in these assays?
D2 potentiator: 17.7; PINK1 modulator: 9.3%; TRPML1 agonist: 1.4; D2 ag: 3.3; Six1-Eya2 blk: inconclusive; CtBP-E1A inh: -22.5

What do the screens show for `CC(C)c1ccc(C(C(=O)NC2CCCC2)N(C(=O)CNC(=O)c2ccco2)c2cccnc2)cc1` (stereo not given)?
D2 potentiator: -1.1; PINK1 modulator: -3.3%; TRPML1 agonist: -0.9; D2 ag: -5.0; Six1-Eya2 blk: 10.8; CtBP-E1A inh: 11.7

How did CCNC(=O)c1ccc(C2SCC(=O)N2Cc2ccco2)cc1 (stereo not given) do in these assays?
D2 potentiator: -20.9; PINK1 modulator: 0.8%; TRPML1 agonist: 0.4; D2 ag: -4.2; Six1-Eya2 blk: -0.9; CtBP-E1A inh: 0.4

Results for CCOC(=O)Nc1nc(-c2ccc(Cl)cc2Cl)cs1 ?
D2 potentiator: -14.5; PINK1 modulator: 3.1%; TRPML1 agonist: -0.1; D2 ag: -4.7; Six1-Eya2 blk: 1.6; CtBP-E1A inh: -12.8

How did COc1ccc(CNC(=O)CNC(=O)N2CC(=O)Nc3ccccc32)cc1 do in these assays?
D2 potentiator: -12.3; PINK1 modulator: -1.6%; TRPML1 agonist: 0.1; D2 ag: -3.6; Six1-Eya2 blk: 9.2; CtBP-E1A inh: 15.5

What do the screens show for `O=C1OC(c2ccc(Cl)cc2)/C(=C(/O)c2ccccc2)C1=O` (stereo not given)?
D2 potentiator: 3.9; PINK1 modulator: 4.8%; TRPML1 agonist: -0.1; D2 ag: -0.1; Six1-Eya2 blk: 3.8; CtBP-E1A inh: 2.9

How did CCOC(=O)c1cccnc1SCC(=O)N(C)c1ccccc1 do in these assays?
D2 potentiator: -16.7; PINK1 modulator: -1.1%[38.3 µM]; TRPML1 agonist: 0.9; D2 ag: 0.6; Six1-Eya2 blk: 3.3; CtBP-E1A inh: 6.7

What do the screens show for `COc1cc(/C=C/C(=O)OCC(=O)NCC(=O)Nc2cccc(C)c2C)ccc1OC(F)F`?
D2 potentiator: 0.1; PINK1 modulator: 2.6%; TRPML1 agonist: 0.1; D2 ag: -3.8; Six1-Eya2 blk: 1.2; CtBP-E1A inh: -0.5

How did CCc1nc2c(OCCOc3ccc(F)cc3)cccn2c1N(C)C(=O)c1ccc(OC)cc1 do in these assays?
D2 potentiator: -6.9; PINK1 modulator: 0.3%; TRPML1 agonist: -0.4; D2 ag: -3.7; Six1-Eya2 blk: -5.4; CtBP-E1A inh: -5.7

How did CC(C)(C)N=C1NC(=NC(C)(C)C)c2ccccc21 do in these assays?
D2 potentiator: -20.9; PINK1 modulator: -5.5%[38.3 µM]; TRPML1 agonist: -0.4; D2 ag: 2.6; Six1-Eya2 blk: -0.3; CtBP-E1A inh: 5.4

How did O=C(NCc1ccccc1Cl)C1CCC(CNc2c(N3CCCCC3)c(=O)c2=O)CC1 (stereo not given) do in these assays?
D2 potentiator: -7.7; PINK1 modulator: -0.3%; TRPML1 agonist: -0.7; D2 ag: -3.1; Six1-Eya2 blk: 5.4; CtBP-E1A inh: -3.5

Results for COc1ccc(CNC(=O)CN(Cc2ccc(Cl)cc2)C(=O)c2csnn2)cc1 ?
D2 potentiator: -9.2; PINK1 modulator: -0.1%; TRPML1 agonist: -0.4; D2 ag: -3.5; Six1-Eya2 blk: 6.8; CtBP-E1A inh: 1.6

What do the screens show for `CCN(CC)S(=O)(=O)c1ccc(OC)c(NS(=O)(=O)c2cccc(C(=O)O)c2)c1`?
D2 potentiator: -5.3; PINK1 modulator: 1.6%; TRPML1 agonist: -0.5; D2 ag: -1.7; Six1-Eya2 blk: 3.0; CtBP-E1A inh: 5.8

What do the screens show for `O=S(=O)(Nc1ccccc1)c1cccc2nonc12`?
D2 potentiator: -11.5; PINK1 modulator: 2.7%; TRPML1 agonist: 0.4; D2 ag: -7.5; Six1-Eya2 blk: 4.5; CtBP-E1A inh: -0.7

How did O=C(COC(=O)CNC(=O)c1ccccc1F)Nc1cccc(S(=O)(=O)N2CCCCCC2)c1 do in these assays?
D2 potentiator: -31.4; PINK1 modulator: 1.4%; TRPML1 agonist: 3.1; D2 ag: -5.5; Six1-Eya2 blk: 0.1

How did COC(=O)[C@H](CC(C)C)NC(=O)/C=C/[C@H]1O[C@@H](n2ccc(=O)[nH]c2=O)[C@H](O)[C@@H]1O do in these assays?
D2 potentiator: 0.1; PINK1 modulator: 0.6%; TRPML1 agonist: 0.4; D2 ag: -2.4; Six1-Eya2 blk: -1.2; CtBP-E1A inh: -1.7

What do the screens show for `C=CCc1cc(Cl)ccc1OCCOCCNC(C)(C)C`?
D2 potentiator: -10.7; PINK1 modulator: 1.9%; TRPML1 agonist: 0.1; D2 ag: -6.1; Six1-Eya2 blk: -0.4

How did COc1ccc(CNC(=O)C2CSC(c3ccc(OC)cc3)N2C(C)=O)cc1 (stereo not given) do in these assays?
D2 potentiator: -9.0; PINK1 modulator: 1.6%; TRPML1 agonist: -0.6; D2 ag: -5.8; Six1-Eya2 blk: -5.9; CtBP-E1A inh: -0.7

What do the screens show for `CC1=C(C(=O)N2CCOCC2)CC(CC(=O)NC2CC2)C(=O)N1Cc1ccc(F)cc1` (stereo not given)?
D2 potentiator: 0.6; PINK1 modulator: -1.0%; TRPML1 agonist: -0.1; D2 ag: -3.0; Six1-Eya2 blk: 8.0; CtBP-E1A inh: 0.8

What do the screens show for `CC(=O)Oc1cccc(N2C(=O)c3ccccc3C2=O)c1`?
D2 potentiator: -2.1; PINK1 modulator: 3.8%; TRPML1 agonist: 0.1; D2 ag: -3.4; Six1-Eya2 blk: 6.4; CtBP-E1A inh: 6.2

How did O=[N+]([O-])c1ccc(Oc2cccc3cccnc23)c(Cl)c1 do in these assays?
D2 potentiator: -0.3; PINK1 modulator: 5.0%; TRPML1 agonist: 3.2; D2 ag: 0.8; Six1-Eya2 blk: -12.5; CtBP-E1A inh: -28.1

How did Cc1cc(-c2nn3c(C)nnc3s2)ccc1NC(=O)C(C)(C)C do in these assays?
D2 potentiator: 4.7; PINK1 modulator: 1.0%; TRPML1 agonist: -0.5; D2 ag: 1.3; Six1-Eya2 blk: 5.3; CtBP-E1A inh: 2.2

Results for COc1ccc(CCN=Cc2ccccc2O)cc1OC ?
D2 potentiator: -6.6; PINK1 modulator: -1.7%; TRPML1 agonist: -0.1; D2 ag: -1.8; Six1-Eya2 blk: 3.6; CtBP-E1A inh: 1.9

How did Cc1ccc(N2CC(C(=O)NC3CC3)CC2=O)cc1Cl (stereo not given) do in these assays?
D2 potentiator: -7.6; PINK1 modulator: -0.6%; TRPML1 agonist: -0.3; D2 ag: -2.5; Six1-Eya2 blk: 5.8; CtBP-E1A inh: -4.0

Results for CCOc1cc(CNc2nn[nH]n2)ccc1OCC(=O)NC(C)(C)C ?
D2 potentiator: 0.8; PINK1 modulator: 0.3%; TRPML1 agonist: -0.6; D2 ag: -1.3; Six1-Eya2 blk: 0.4; CtBP-E1A inh: 10.2

How did Cc1csc(SCC(=O)NC(=O)C2CCCCC2)n1 do in these assays?
D2 potentiator: -2.6; PINK1 modulator: 1.1%; TRPML1 agonist: 2.5; D2 ag: -6.5; Six1-Eya2 blk: -17.6

Results for O=C(CCCn1nnnc1CN1CCOCC1)N1CCC(c2ccccc2Cl)C1 (stereo not given) ?
D2 potentiator: -8.3; PINK1 modulator: -0.9%; TRPML1 agonist: 2.2; D2 ag: -0.5; Six1-Eya2 blk: 2.5

How did CCOC(=O)C1CCN(Cc2cccc(OC)c2)CC1 do in these assays?
D2 potentiator: -3.0; PINK1 modulator: 18.8%[38.3 µM]; TRPML1 agonist: 0.4; D2 ag: inconclusive; Six1-Eya2 blk: -0.2; CtBP-E1A inh: 4.6

Results for O=C(N/C(=C/c1ccc2c(c1)OCO2)C(=O)N1CCOCC1)c1cccs1 ?
D2 potentiator: 5.0; PINK1 modulator: -1.9%; TRPML1 agonist: -0.1; D2 ag: -2.8; Six1-Eya2 blk: -15.1; CtBP-E1A inh: -7.1

How did CC(=O)/C(N=Nc1c(C)n(C)n(-c2ccccc2)c1=O)=C(\C)O do in these assays?
D2 potentiator: -6.9; PINK1 modulator: -0.1%; TRPML1 agonist: -0.6; D2 ag: 3.6; Six1-Eya2 blk: -16.4; CtBP-E1A inh: -5.3

How did COc1ccc(CCNC(=O)[C@H](C)NC(=O)N2CCn3c2nc2ccccc23)cc1OC do in these assays?
D2 potentiator: -8.7; PINK1 modulator: 1.9%; TRPML1 agonist: -0.9; D2 ag: -3.8; Six1-Eya2 blk: 1.9; CtBP-E1A inh: 6.1

Results for CC(C)(C)n1nc2c(c1NC(=O)c1ccccc1)CS(=O)(=O)C2 ?
D2 potentiator: 5.3; PINK1 modulator: -0.2%; TRPML1 agonist: 0.7; D2 ag: 1.4; Six1-Eya2 blk: 8.4; CtBP-E1A inh: 7.0

Results for CC(Sc1n[nH]c(N)n1)c1nc2scc(-c3cccs3)c2c(=O)[nH]1 (stereo not given) ?
D2 potentiator: -1.7; PINK1 modulator: 3.1%; TRPML1 agonist: -1.0; D2 ag: -3.9; Six1-Eya2 blk: -8.0; CtBP-E1A inh: -0.4

How did CC(=O)Nc1cccc(-c2cc3c(c4c2ccn4C)C2CCC3O2)c1 (stereo not given) do in these assays?
D2 potentiator: -3.7; PINK1 modulator: 4.3%; TRPML1 agonist: -0.4; D2 ag: -4.0; Six1-Eya2 blk: -1.6; CtBP-E1A inh: -7.4

How did O=C(CSc1nnc(NC(=O)c2ccc(F)cc2F)s1)NC1CC1 do in these assays?
D2 potentiator: -2.3; PINK1 modulator: 1.1%; TRPML1 agonist: 0.4; D2 ag: -2.2; Six1-Eya2 blk: -1.7; CtBP-E1A inh: -1.1

Nothing new here: entries from further up.
Results for O=C(N/C(=C/c1ccc2c(c1)OCO2)C(=O)N1CCOCC1)c1cccs1 ?
D2 potentiator: 5.0; PINK1 modulator: -1.9%; TRPML1 agonist: -0.1; D2 ag: -2.8; Six1-Eya2 blk: -15.1; CtBP-E1A inh: -7.1

How did CC(=O)/C(N=Nc1c(C)n(C)n(-c2ccccc2)c1=O)=C(\C)O do in these assays?
D2 potentiator: -6.9; PINK1 modulator: -0.1%; TRPML1 agonist: -0.6; D2 ag: 3.6; Six1-Eya2 blk: -16.4; CtBP-E1A inh: -5.3

How did COc1ccc(CCNC(=O)[C@H](C)NC(=O)N2CCn3c2nc2ccccc23)cc1OC do in these assays?
D2 potentiator: -8.7; PINK1 modulator: 1.9%; TRPML1 agonist: -0.9; D2 ag: -3.8; Six1-Eya2 blk: 1.9; CtBP-E1A inh: 6.1

Results for CC(C)(C)n1nc2c(c1NC(=O)c1ccccc1)CS(=O)(=O)C2 ?
D2 potentiator: 5.3; PINK1 modulator: -0.2%; TRPML1 agonist: 0.7; D2 ag: 1.4; Six1-Eya2 blk: 8.4; CtBP-E1A inh: 7.0
